# Screening data (PubChem BioAssay)
# Ecoli rRNA inh – reduced GFP signal of wild-type E. coli, primary screen, bacterial rRNA inhibitor project, GFP/RFP fluorescence, OD600, single point. E. coli WT GFP vs humanized-ribosome RFP mutants, 24 h; active compounds read low; DMSO median 0, no signal -100. GFP signal change (wild-type ribosome), % (test concentration not listed). actives 1.6% (n = 350,000);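 active = significant combined selectivity score with lowered wild-type GFP, culture density cut under 30%, mutant RFP and density less affected; inactive = any of these conditions unmet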; also: one replicate is shown; some compounds called inactive have numbers as strong as hits
# Ecoli rRNA inh OD600 – second read-out of Ecoli rRNA inh, no call of its own (marks repeat the call); OD600 change, %; measured here: OD600 growth;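 optical density of the mix in the first replicate; 0 = DMSO median and -100 = no signal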
# Ecoli rRNA inh RFP – further read-out of Ecoli rRNA inh, marked with its call; RFP signal change, %; measured here: RFP humanized mutant strains;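 first replicate; 0 = DMSO median and -100 = no signal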
# * hit, by the source's call; & = joins results of further samples. Some of the compounds tested; rates above refer to the full screens.
Ecoli rRNA inh	Ecoli rRNA inh OD600	Structure	Ecoli rRNA inh RFP
-2	3	C[C@@H]1CN([C@@H](C)CO)C(=O)c2cc(/C=C/c3ccccc3)cnc2O[C@H]1CN(C)C(=O)C1CC1	-1.7
-1	10	COc1ccc(S(=O)(=O)N(C)C[C@@H]2Oc3ncc(C#Cc4ccc(OC)c(OC)c4)cc3C(=O)N([C@H](C)CO)C[C@@H]2C)cc1	-0.4
-1	-33	Cc1ccc(S(=O)(=O)N[C@H]2C=C[C@@H](CC(=O)N3CCC(Cc4ccccc4)CC3)O[C@H]2CO)cc1	12
2	11	C[C@H](CO)N1C[C@H](C)[C@H](CN(C)C(=O)C2CC2)Oc2ncc(C#CC3(O)CCCC3)cc2C1=O	-1.9
0	18	C[C@H](CO)N1C[C@H](C)[C@H](CN(C)Cc2ccccc2)Oc2cc(C#CCN(C)C)ccc2S1(=O)=O	0.4
-1	2	CCNC(=O)[C@@H]1[C@@H](CO)[C@@H]2Cn3c(ccc(-c4ccc(F)cc4)c3=O)[C@@H]2N1C(=O)Cc1cccnc1	-3.7
3	10	C[C@@H]1CN([C@H](C)CO)C(=O)c2cc(C#CCN(C)C)cnc2O[C@@H]1CN(C)Cc1ccccc1	-5.8
-3	3	COc1ccc(S(=O)(=O)Nc2ccc3c(c2)C(=O)N([C@H](C)CO)C[C@H](C)[C@H](CN(C)C(=O)Nc2ccc4c(c2)OCO4)OCCCC[C@H](C)O3)cc1	-4.4
7	0	O=C(C1CCOCC1)N1CC(=O)N2[C@H](C1)[C@@H](c1ccc(Br)cc1)[C@@H]2CO	0.3
-5&-5	-14&2	Cc1ccc(S(=O)(=O)N(C)C[C@@H]2Oc3ncc(Br)cc3C(=O)N([C@H](C)CO)C[C@H]2C)cc1	-1.6&2.2
1	-3	CC(C)C#Cc1ccc2c(c1)O[C@H](CN(C)C(=O)C1CC1)[C@@H](C)CN([C@H](C)CO)S2(=O)=O	2.0
-1	3	Cc1ccc(S(=O)(=O)N(C)C[C@@H]2Oc3ccc(NC(=O)Nc4ccc5c(c4)OCO5)cc3C(=O)N([C@H](C)CO)C[C@@H]2C)cc1	3.7
2	4	O=C(c1ccncc1)N1C[C@@H]2[C@H](c3ccccc31)[C@H](CO)N2C(=O)Nc1ccccc1Cl	0.2
-1	-4	C[C@H](CO)N1C[C@H](C)[C@H](CN(C)C(=O)Nc2ccccc2)OCCCC[C@H](C)Oc2ccc(NS(=O)(=O)c3cn(C)cn3)cc2C1=O	-1.0
9	7	CCc1ccc(C2=CC(=O)CC(C)(C)C2=O)cc1	1.1
1	-4	COc1ccc(NC(=O)N(C)C[C@H]2Oc3ccc(NC(=O)Cc4ccccc4)cc3CC(=O)N([C@@H](C)CO)C[C@@H]2C)cc1	-3.4

# As a short view, 2 of the compounds above:
Ecoli rRNA inh	Ecoli rRNA inh OD600	Structure	Ecoli rRNA inh RFP
-2	3	C[C@@H]1CN([C@@H](C)CO)C(=O)c2cc(/C=C/c3ccccc3)cnc2O[C@H]1CN(C)C(=O)C1CC1	-1.7
-1	10	COc1ccc(S(=O)(=O)N(C)C[C@@H]2Oc3ncc(C#Cc4ccc(OC)c(OC)c4)cc3C(=O)N([C@H](C)CO)C[C@@H]2C)cc1	-0.4

# Next section.
Ecoli rRNA inh	Ecoli rRNA inh OD600	Structure	Ecoli rRNA inh RFP
4	-6	CCN(CC)c1cc2c(c3c1ccn3C)C1CCC2O1 (stereo unspecified)	8.3
-1	9	C[C@H]1CN([C@@H](C)CO)C(=O)Cc2cc(NC(=O)Nc3ccc(C(F)(F)F)cc3)ccc2O[C@H]1CN(C)Cc1ccc(Cl)c(Cl)c1	0.0
1	6	CCC(=O)N1C[C@@H](C)[C@@H](OC)CN(C)C(=O)c2cc(NC(=O)C3CCOCC3)ccc2OC[C@@H]1C	-2.3
0	3	COc1ccccc1CN1[C@@H]2CN(C(=O)c3ccncc3)c3ccccc3[C@@H]2[C@@H]1CO	-3.0
-1	-1	COC(=O)C[C@H]1CC[C@H]2[C@@H](COc3ccc(NC(=O)c4cccc(Cl)c4)cc3C(=O)N2C)O1	1.4
4	4	C[C@@H]1CCCCO[C@@H](CN(C)C(=O)CCCN(C)C)[C@H](C)CN([C@@H](C)CO)C(=O)c2cc(NC(=O)NC3CCCCC3)ccc2O1	-1.5
3	9	CC(C)c1cn(CC[C@@H]2CC[C@H](NC(=O)C3CCCCC3)[C@@H](CO)O2)nn1	-2.3
7	4	C[C@@H]1CN([C@H](C)CO)C(=O)c2cc(C#CCN(C)C)cnc2O[C@H]1CN(C)S(C)(=O)=O	-2.1
4	-1	CN(C)c1ccc2c(c1)[C@H]1C[C@@H](CC(=O)N3CCCCC3)O[C@@H](CO)[C@H]1O2	2.5
-4	0	C[C@@H]1CN([C@H](C)CO)C(=O)Cc2cc(NC(=O)Cc3cn(C)c4ccccc34)ccc2O[C@@H]1CN(C)Cc1ccc(C(=O)Nc2ccccc2N)cc1	2.6
-2	-10	O=C(c1cnccn1)N1CC(=O)N2[C@H](CO)[C@@H](c3ccc(C#CC4CC4)cc3)[C@H]2C1	0.9
1	1	CC(C)C(=O)Nc1ccc2c(c1)C(=O)N(C)[C@H]1CC[C@H](CC(=O)N[C@H](C)c3ccccc3)O[C@@H]1CO2	-0.1
4	3	O=C(C[C@@H]1CC[C@H](NC(=O)c2cccc(F)c2)[C@H](CO)O1)NCc1ccccc1	-4.9
-2	9	O=C(Nc1ccc(F)cc1)N1C[C@H]2[C@@H](c3ccccc31)[C@@H](CO)N2C(=O)c1cccnc1	3.4
-11	-27	C[C@@H]1CN([C@H](C)CO)S(=O)(=O)c2ccc(-c3ccncc3)cc2O[C@@H]1CN(C)C(=O)Nc1ccc(C(F)(F)F)cc1	-2.9
2	8	CO[C@H]1CN(C)C(=O)c2cccc(C#N)c2OCC[C@@H]2CC[C@H](OC)[C@@H](CN(C)C(=O)[C@H]1C)O2	-3.4
1	6	CO[C@H]1CN(C)C(=O)c2ccc(NC(=O)Cc3ccccc3)cc2OC[C@H](C)N(CC2CC2)C[C@H]1C	-3.4
19	19	O=C(COC(=O)c1cccc(-n2cnnn2)c1)c1ccc(F)c(F)c1	3.9
1	-14	Cc1noc(C)c1S(=O)(=O)Nc1ccc2c(c1)CC(=O)N([C@@H](C)CO)C[C@@H](C)[C@H](CN(C)S(=O)(=O)c1ccc(Cl)cc1)O2	2.6
2	-2	O=C(C[C@@H]1C=C[C@@H](NC(=O)c2ccncc2)[C@H](CO)O1)NCC1CCCCC1	-2.4
-1	7	CCCC(=O)N1CC2(CN(C(=O)C3CCC3)C2)c2c(n(C)c3cc(OC)ccc23)[C@@H]1CO	2.7
-2	-5	C[C@H](CO)N1C[C@H](C)[C@@H](CN(C)C(=O)Nc2ccc3c(c2)OCO3)OCCCC[C@H](C)Oc2ccc(NS(=O)(=O)c3ccc(F)cc3)cc2C1=O	3.0
1	0	Cc1ccc(S(=O)(=O)N[C@H]2CC[C@H](CCNC(=O)Cc3ccccn3)O[C@@H]2CO)cc1	1.2
13	7	CC(C)Oc1ccc2ccccc2c1CNC[C@H]1O[C@@H](n2ccc(N)nc2=O)[C@H](O)[C@@H]1O	0.3

# Gathered by group: those above containing fluorine (7)
Ecoli rRNA inh	Ecoli rRNA inh OD600	Structure	Ecoli rRNA inh RFP
-1	2	CCNC(=O)[C@@H]1[C@@H](CO)[C@@H]2Cn3c(ccc(-c4ccc(F)cc4)c3=O)[C@@H]2N1C(=O)Cc1cccnc1	-3.7
-1	9	C[C@H]1CN([C@@H](C)CO)C(=O)Cc2cc(NC(=O)Nc3ccc(C(F)(F)F)cc3)ccc2O[C@H]1CN(C)Cc1ccc(Cl)c(Cl)c1	0.0
4	3	O=C(C[C@@H]1CC[C@H](NC(=O)c2cccc(F)c2)[C@H](CO)O1)NCc1ccccc1	-4.9
-2	9	O=C(Nc1ccc(F)cc1)N1C[C@H]2[C@@H](c3ccccc31)[C@@H](CO)N2C(=O)c1cccnc1	3.4
-11	-27	C[C@@H]1CN([C@H](C)CO)S(=O)(=O)c2ccc(-c3ccncc3)cc2O[C@@H]1CN(C)C(=O)Nc1ccc(C(F)(F)F)cc1	-2.9
19	19	O=C(COC(=O)c1cccc(-n2cnnn2)c1)c1ccc(F)c(F)c1	3.9
-2	-5	C[C@H](CO)N1C[C@H](C)[C@@H](CN(C)C(=O)Nc2ccc3c(c2)OCO3)OCCCC[C@H](C)Oc2ccc(NS(=O)(=O)c3ccc(F)cc3)cc2C1=O	3.0

# Next part:
Ecoli rRNA inh	Ecoli rRNA inh OD600	Structure	Ecoli rRNA inh RFP
1	3	CO[C@@H]1CN(C)C(=O)c2ccc(NC(=O)CC(F)(F)F)cc2OC[C@@H](C)N(C(=O)C2CC2)C[C@@H]1C	2.8
0	2	C[C@@H]1CCCCO[C@H](CN(C)S(=O)(=O)c2ccc(F)cc2)[C@H](C)CN([C@H](C)CO)C(=O)c2cc(NS(=O)(=O)c3cn(C)cn3)ccc2O1	-0.4
3	0	C[C@H]1CN([C@@H](C)CO)S(=O)(=O)c2ccc(C#CCN(C)C)cc2O[C@H]1CN(C)C(=O)C1CCCCC1	-1.6
-6	8	O=C(C=Cc1ccc2c(c1)OCO2)C=Cc1ccc2c(c1)OCO2	1.3
2	-6	CCC(=O)N1[C@H](CO)[C@H]2c3ccccc3N(C(=O)Nc3ccccc3Cl)C[C@H]21	1.0
7	13	COCC(=O)N1[C@@H](C#N)[C@@H](c2ccccc2-c2cccc(C)c2)[C@@H]1CO	4.3
-4	-8	COc1ccccc1NC(=O)N[C@H]1CC[C@H](CCn2cc(-c3ccccc3)nn2)O[C@H]1CO	2.1
-2	-8	Cc1noc(C)c1NC(=O)Nc1ccc2c(c1)C(=O)N([C@H](C)CO)C[C@@H](C)[C@@H](CN(C)S(=O)(=O)c1ccccc1)OCCCC[C@@H](C)O2	3.2
13&3	19&4	COC(=O)N(C)C[C@H]1OCc2cnnn2CCCC(=O)N([C@H](C)CO)C[C@@H]1C	2.0&0.4
1	8	CC(C)CC#Cc1cnc2c(c1)C(=O)N([C@@H](C)CO)C[C@H](C)[C@@H](CN(C)S(=O)(=O)c1cccs1)O2	0.0
-15	-42	O=C(C[C@@H]1CC[C@@H](NC(=O)c2ccc3c(c2)OCO3)[C@@H](CO)O1)NCc1ccc(Oc2ccccc2)cc1	-5.0
0	-4	CN(C)C(=O)[C@@H]1[C@@H](CO)[C@@H]2Cn3c(ccc(-c4cccc(F)c4)c3=O)[C@H]1N2Cc1ccccc1	1.4
-1	-10	Cc1ccc(-c2ccc3c(c2)O[C@@H](CN(C)C(=O)NC(C)C)[C@@H](C)CN([C@H](C)CO)S3(=O)=O)cc1	-0.2
2	-4	C[C@@H]1CN([C@@H](C)CO)C(=O)c2cc(NC(=O)NC3CCCCC3)ccc2O[C@@H]1CN(C)Cc1ccc(Oc2ccccc2)cc1	4.2
-25	-45	Cc1ccccc1-c1cnc(C(O)c2ccc(C(C)(C)C)cc2)[nH]1 (stereo unspecified)	-6.4
0	1	CCCN1C[C@H](C)[C@H](OC)CN(C)C(=O)c2cc(NC(=O)NC3CCCCC3)ccc2OC[C@@H]1C	-0.6
-3	-7	Cc1ccc(S(=O)(=O)Nc2ccc3c(c2)C(=O)N([C@H](C)CO)C[C@@H](C)[C@@H](CN(C)C(=O)Nc2c(C)noc2C)OCCCC[C@@H](C)O3)cc1	0.6
-5&-58	-7&-80	O=C(NCC[C@H]1CC[C@@H](NC(=O)C2CC2)[C@H](CO)O1)Nc1ccc(C(F)(F)F)cc1	1.1&-18
-6	-5	C[C@@H](NC(=O)C[C@H]1C=C[C@H](NC(=O)Nc2ccc3c(c2)OCO3)[C@@H](CO)O1)c1ccccc1	-0.2
2	1	Cc1ccc(S(=O)(=O)Nc2ccc3c(c2)C(=O)N([C@@H](C)CO)C[C@@H](C)[C@@H](CN(C)C(=O)Nc2c(C)noc2C)O3)cc1	-1.4
3	0	O=C(N[C@H](C(=O)N1CCC[C@H]1C(=O)NC1CCCC1)C1CCCCC1)c1ccco1	1.9
3	1	CN(C)CC(=O)N[C@@H]1C=C[C@@H](CC(=O)NCc2ccccc2F)O[C@H]1CO	-0.1
1	-6	COc1ccc(NC(=O)N(C)C[C@H]2Oc3ccc(NS(=O)(=O)c4ccccc4)cc3CC(=O)N([C@@H](C)CO)C[C@@H]2C)cc1	-3.3
-57	-78	O=C(C1CCCCC1)N1[C@@H](CO)[C@@H](c2ccccc2)C12CN(Cc1cccc(Cl)c1)C2	-14
-6	-45	C/C=C/c1ccc([C@@H]2[C@@H](C#N)N(c3ncc(CC)s3)[C@@H]2CO)cc1	1.2
-2	-1	C[C@H](NC(=O)N(C)C[C@@H]1OCc2ccccc2-c2ccccc2C(=O)N([C@H](C)CO)C[C@H]1C)c1ccccc1	-0.2
2	0	CC(C)NC(=O)N[C@@H]1CC[C@H](CC(=O)NC2Cc3ccccc3C2)O[C@H]1CO	-1.6
3	8	Cc1ccc(S(=O)(=O)NC(=O)C2(C)CCN2C(=O)Cc2ccc(Cl)cc2Cl)nc1 (stereo unspecified)	-1.6
1	-4	CO[C@@H]1CN(C)C(=O)c2cc(NC(=O)c3ccccc3)ccc2OC[C@@H](C)NC[C@H]1C	-0.1
3	1	OC[C@@H]1[C@H](c2ccc(Br)cc2)[C@H]2CN(Cc3cncnc3)CCCCN12	-1.9
0	8	Cc1noc(C)c1NC(=O)Nc1cccc2c1O[C@H](CN(C)Cc1ccc(C(F)(F)F)cc1)[C@H](C)CN([C@@H](C)CO)C2=O	-2.2
5	4	CC(C)NC(=O)Nc1cccc2c1O[C@@H](CN(C)S(C)(=O)=O)[C@H](C)CN([C@H](C)CO)C2=O	-1.0
3	5	COc1ccc(S(=O)(=O)N(C)C[C@@H]2Oc3ccc(NS(=O)(=O)c4cccs4)cc3CC(=O)N([C@@H](C)CO)C[C@@H]2C)cc1	1.1
3	4	CCC(=O)N1[C@H](CO)[C@@H](c2ccccc2)C12CN(C(=O)NC1CCCC1)C2	-1.4
1	10	C[C@@H]1CN([C@H](C)CO)C(=O)Cc2cc(NC(=O)CCN3CCOCC3)ccc2O[C@H]1CN(C)C(=O)Nc1cccc2ccccc12	-0.6
